Source: PubChem
Ab BasE inh: BasE siderophore biosynthesis inhibition; purified BasE, fluorescence polarization binding displacement; inhibition, % (test concentration not listed); 0.1% of 84,000 active; AID 485350;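 active means both replicates above 25% with normal brightness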;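 further: 0% = negative plate control signal and 100% = positive plate control signal; stock transfer was 100 nL into about 30 µL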
LANA-nucl inh: inhibitors of KSHV LANA binding to nucleosomes. FITC-LANA1-23 / chicken nucleosome fluorescence polarization; hits give low values. z-score (concentration not given with the values). 0.3% of 51,000 active;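 active means both repeat wells score below -2 in polarization z-score versus plate sample wells, excluding overly bright wells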;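 further: 100 nL library stock added to about 30 µL; numbers are from one replicate; some results filed as inactive read as strong as hits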
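System – purified chicken nucleosomes with FITC-labelled LANA N-terminal peptide (1-23) · Amount – 240 nM purified chicken nucleosomes (480 nM peptide binding sites), final · Also added – 50 nM FITC-LANA1-23 probe · Medium – TEN-BT buffer, pH 7.5 · Incubation – compound with peptide–nucleosome mix 10–45 min at room temperature · Detection – fluorescence polarization, ex 480 nm, em 535 nm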
An asterisk follows results filed as active; x = not tested or not shown; & = joins results of further samples. These rows are one share of the data; rates above refer to the full screens.

Under each structure: Ab BasE inh, LANA-nucl inh
N#CC1CN(Cc2cccs2)CN(Cc2cccs2)C1
  -0.2, x
CCCn1c(N2CCN(C(=O)/C=C/C(=O)O)CC2)nc2ccccc21
  -0.6, -2.1
CSc1ncc(-c2ccc(Cl)cc2)cn1
  x, 2.2
Cc1ccc(C2=NS(=O)(=O)N(C)C(C(=O)N3CCC(C)CC3)=C2)cc1
  1.0, -0.18
CCOC(=O)CSc1nc2c(c(=O)[nH]1)C1(CCCC1)Cc1ccccc1-2
  2.2, -0.43
CCSc1nc2ccccc2c(=O)n1C(C)C
  -2.0, x
CS(=O)c1ccccc1O (stereo not given)
  x, 2.5
C=CCN=C1NN=C(c2ccc(Cl)cc2)C(C)S1 (stereo not given)
  2.2, x
Nc1sc2c(c1C(=O)c1cccs1)CCCC2
  -2.2, x
N#CC(C(=O)c1ccc(S(=O)(=O)N2CCCCC2)cc1)c1nc2ccccc2c(=O)[nH]1 (stereo not given)
  -0.6, x
C[n+]1ccc(CCc2cc[n+](C)cc2)cc1
  -0.3, x
CC(N)c1ccc(C(=O)O)o1 (stereo not given)
  1.6, -0.24
CN(Cc1ccccc1)C(=O)c1ccc2c(c1)S(=O)(=O)N=C1CCCCCN12
  1.4, x
CN(C(=O)C1CC(c2ccc(F)cc2)=NO1)c1ccccc1 (stereo not given)
  0.7, -2
COc1ccc(CC(=O)NC2CCN(CC(=O)Nc3ccc4c(c3)CCC4)CC2)cc1OC
  -1.8, -0.2
CCN1CCN(Cc2coc3ccccc3c2=O)CC1
  -1.1, 0.23
CC(C)(C)c1cc(C(=O)NCc2ccco2)n(Cc2ccc(F)cc2)n1
  x, -0.93
O=C(OCc1nnc(-c2ccc(Cl)cc2)o1)C1CCN(c2ccc(C(F)(F)F)cn2)CC1
  2.4, x
Cc1[nH]n(CCc2ncc(-c3ccccc3)s2)c(=O)c1C1=NCCCCC1
  1.3, x
CCCN(Cc1nnc(-c2ccco2)o1)C(=O)c1nn(-c2ccccc2)nc1C
  -1.8, x
CC(C)C(NC(=O)c1cccs1)C(=O)Nc1nc2ccccc2s1 (stereo not given)
  3.7, -0.93
O=C1NCC(O)=C1C=Nc1ccc(C2CCCCC2)cc1
  -0.9, x
CCSc1nn2c(=O)cc(COc3ccc(CC)cc3)nc2s1
  -0.9, 1.6
Nc1nc(SCC(=O)N2CCNC2=O)nc2sc3c(c12)CCCCC3
  -5.8, x
Nc1nnc(-c2ccco2)o1
  -0.4, x
O=C(NCc1ccco1)c1ccc(Cn2c(=O)c3ccccc3n(Cc3ccccc3F)c2=O)cc1
  2.3, 0.12
CCC(CO)NC(=O)c1snnc1C (stereo not given)
  0.1, -0.37
O=C(NN=C1CCCCC1)c1ccccc1
  2.6, 0.0075
CCC(=O)Nc1ccc(-c2csc(NCCN(CC)CC)n2)cc1
  0.3, x
COc1ccc(NC(=O)CN(C)C(=O)C2=NN(C3CCS(=O)(=O)C3)C(=O)CC2)cc1 (stereo not given)
  -0.6, x
Cc1cccc(Nc2nnc(SCc3ccccc3C#N)s2)c1
  -0.2, x
CCON1C(=O)NC(c2cc(F)ccc2C)(C(F)(F)F)C1=O (stereo not given)
  2.1, -0.083
COc1ccc(CN(C)CC(O)COC2CCCc3ccccc32)cc1 (stereo not given)
  -0.2, x
CN(C)S(=O)(=O)c1ccc(C(=O)OCCn2cnc3c2c(=O)n(C)c(=O)n3C)cc1
  1.4, x
CN(CC(=O)NC1CCCC1)S(=O)(=O)c1ccc2[nH]c3c(c2c1)CCCC3
  -1.3, -0.99
Fc1cccc(CN2CCc3c([nH]c4ccccc34)C2)c1
  -2.2, -0.62
COc1ccc(Nc2nc3ccc(Cl)cc3n3cnnc23)c(OC)c1
  1.0, -0.9
CSc1ncc2c(=O)[nH]ccc2n1
  1.6, -0.12
CCOC(=O)/C(=N\Nc1ccccc1Cl)N1CCCCC1
  0.3, x
Cc1ccc(N2C(=O)CC(NCC(=O)O)C2=O)c(C)c1 (stereo not given)
  0.8, -0.24
Cc1ccc(NC(=O)CCC(=O)n2nc(C)cc2C)c(C)c1
  -0.6, x
COc1cccc(CN2CCN(C(=O)Nc3cccc(OC)c3)CC2)c1
  -3.4, 2.7
CN(C(=O)Nc1ccc2c(c1)OCCO2)C1CCCCC1
  -3.6, x
CCCc1cc(NCCc2ccc(OC)cc2)n2ncnc2n1
  0.3, 0.2
O=C(NCc1ccccc1)c1nc(-c2ccccc2)no1
  2.8, 0.5
CCCCC(=O)Nc1ccc(C(=O)NCc2ccc(S(N)(=O)=O)cc2)cc1
  1.1, -0.22
COc1cccc(C(=O)OCC(=O)N(C)C)c1
  -3.2, x
CCOC(=O)CC1CN(C)CCN1C (stereo not given)
  0.7, -1.5
CC(C)c1ccc(NC(=O)CNS(=O)(=O)c2ccccc2)cc1
  2.0, 0.81
COc1ccc(NC(=O)CN(C)S(=O)(=O)c2ccc(-c3ccc(=O)[nH]n3)s2)cc1
  -1.4, x
O=C(NC1CCCC1)c1ncoc1-c1cccs1
  -2.5, 0.77
N#CC(C(=O)CN1C(=O)S/C(=C\c2cccs2)C1=O)c1ccccn1 (stereo not given)
  2.6, x
O=C(NCCc1c[nH]c2ccccc12)c1ccc(COc2ccc(F)cc2)o1
  4.0, x
Cc1nc2c(C)nn(-c3ccccc3)c2s1
  0.3, 0.93
CCN(CC)c1ccc(Nc2ncnc3ccccc23)cc1
  1.1, -0.41
Cc1noc(C)c1CCC(=O)NC1=NCCS1
  2.1, x
CCNC(=O)/C(C#N)=C/c1ccc(OC(F)F)cc1
  -2.8, x
O=c1cc(C(F)(F)F)nc(N2CCSCC2)[nH]1
  x, 0.33
NS(=O)(=O)c1cccc(C(=O)O)c1
  2.4, -0.62
O=C(Cn1ncc2c1-c1ccccc1OC2)NCCN1CCOCC1
  -2.2, -1.3

(further entries)
Under each structure: Ab BasE inh, LANA-nucl inh
COc1ccccc1-n1cnnc1SCC(=O)NC1CCCCC1C (stereo not given)
  0.0, x
CC(=O)NCCC(=O)N1CCCSC1=Nc1c(C)cccc1C
  0.1, x
CCC(C)(C(=O)NC1CCCCC1)N(Cc1cccs1)C(=O)Cc1cccs1 (stereo not given)
  -4.4, 1.5
C(=N\c1nc2ccccc2n1Cc1ccccc1)/c1ccc2c(c1)OCO2
  1.7, -1.4
Fc1cccc(F)c1CN1CC=CCC1
  0.0, 0.56
CN1C(=O)C(=C2C=C(c3ccccc3)OC3=C2CCCC3)C(=O)N(C)C1=O
  -1.6, 0.36
CCn1c(O)c(C=N/C(=N/O)c2ccc(NC(=O)C3CC3)cc2)c(=O)n(CC)c1=S
  0.7, x
COc1ccc(C2NCCc3c2[nH]c2ccc(OC)cc32)cc1 (stereo not given)
  -9.2, 0.015
CC(C)(C)c1ccc(-c2cc(C3CCNCC3)[nH]n2)cc1
  -4.6, -0.24
CC(=O)N/N=C(\C)c1ccc2ccccc2c1OC(F)F
  3.5, x
CN1CCN(C(=O)c2nc(SCc3ccc(F)cc3)ncc2Cl)CC1
  -3.2, 2.2
CN(C)S(=O)(=O)c1ccc(=O)[nH]c1
  1.9, x
COc1ccc(C(N)C2CC2)cc1 (stereo not given)
  -1.1, x
O=S(=O)(c1cccs1)N1CC=C(c2ccccc2)CC1
  x, -0.54
CN(C)S(=O)(=O)c1ccc(C(=O)COC(=O)c2ccccc2NCc2ccco2)cc1
  1.4, x
CC(C(=O)O)n1nc2ccccc2n1 (stereo not given)
  2.1, 0.28
CC(NC(=O)c1ccco1)c1ccccc1 (stereo not given)
  2.6, 0.51
CN(C(=O)/C=C/C(=O)O)c1ccccc1
  -6.9, x
COc1cccc(-c2cc(C(F)(F)F)n3ncc(C(=O)NN4CCN(C)CC4)c3n2)c1
  0.7, 0.22
O=C(Nc1c(C(=O)N2CCCCCC2)oc2ccccc12)c1ccccc1
  0.9, x

The list continues:
SMILES	Ab BasE inh	LANA-nucl inh
COc1ccc(NC(=O)/C(C#N)=N/Nc2cc(C(=O)O)ccc2C)cc1	-1.4	x
CN1C(=O)C(CC(=O)Nc2ccc(F)cc2)N(Cc2ccccc2)C1=S (stereo not given)	5.4	x
CNC(=S)NCCc1ccccc1	2.4	x
CC(C)(C)c1ccc(NC(=O)c2ccc(N3C(=O)CSCC3=O)cc2)cc1	0.7	x
O=C(NCc1ccccc1)c1ccc[n+]([O-])c1	2.8	x
CCn1c(SCC(=O)NC(=O)c2cccn2C)nnc1-c1cccs1	0.6	x
O=C(c1ccc(Cl)cc1Cl)n1cc2c(n1)CCOC2	2.1	x
N#CC1=C(N)Oc2n[nH]c(-c3ccccc3)c2C1c1ccoc1 (stereo not given)	1.7	1.5
O=C1NC(C(F)(F)F)(C(F)(F)F)N=C2SC=CN12	0.3	-0.48
Cc1nn(Cc2ccccc2)c(Cl)c1C(=O)OCC#N	-0.1	x
COC(=O)c1c(O)cn(-c2ccc(C)c(C)c2)c1C	0.8	0.13
Cc1cc(C)n2cc(-c3ccc(Cl)cc3)c(C(=O)O)c2n1	x	-0.048
CCCCn1c(SCc2cc(=O)n3cc(Cl)ccc3n2)nc2ccc(N3CCOCC3)cc2c1=O	-1.0	-0.15
CC(C)c1c(O)nc(SCCC(=O)O)[nH]c1=O	-0.9	-0.44
Cc1cc(C)nc(SCc2nnc(SCC(=O)NCc3ccccc3)o2)n1	2.5	x
O=C(O)c1ccc(N2CCCCS2(=O)=O)cc1	-1.0	0.33
CCOc1ccc(/C=N/N2C(=O)NC(C)(CC)C2=O)c(O)c1 (stereo not given)	-0.5	x
CCN(CC(=O)Nc1cc(C)on1)CC(=O)NC1CCS(=O)(=O)C1 (stereo not given)	0.7	x
CC1CC(C)CN(C(=O)C2c3ccccc3Oc3ccccc32)C1 (stereo not given)	2.3	x
O=S1(=O)CCN(Cc2ccccc2C(F)(F)F)CC1	x	0.019
COc1ccc(O)c(/C=N/NC(=O)CSc2nnc(C)n2-c2ccccc2)c1	2.1	-1.3
Cc1cc(=O)c2cccc(C(=O)O)c2[nH]1	-1.4	0.16
O=S(=O)(NC1CCCCC1N1CCN(C2CCCCC2)CC1)c1ccccc1 (stereo not given)	0.9	-0.94
CC(=O)Nc1ccc(C(=O)CSc2nnc3n2CCCCC3)c(F)c1	2.4	x
C=C(C)C(=O)Nc1cccnc1Oc1ccccc1F	1.8	-0.0075
CC(C)(C)c1ccc(-c2nnn(-c3ccccc3)n2)cc1	0.4	2.4
O=S1(=O)Cc2snnc2-c2cc(Cl)ccc21	2.5	-0.98
COC(=O)C1=C(C)NC(C)=C(C(=O)OCCSc2ccccc2)C1C (stereo not given)	2.8	0.43
C=CCN1C(=O)S/C(=C\c2cc(OC)ccc2OC)C1=O	-1.8	0.046
COC(=O)c1cc(C(=O)OC)cc(-n2c(C)cc(C(=O)COc3ccc(-c4nnco4)cc3)c2C)c1	3.7	x
CC(=O)N(c1ccc2oc3c(c2c1)CCCC3)S(=O)(=O)c1cccs1	0.9	0.091
CCCCCCNC(=O)n1cc(F)c(=O)[nH]c1=O	2.8	0.29&0.51
O=C(c1ccccc1)c1ccc(Cl)s1	0.6	0.59
CCc1ccccc1NC(=O)CN(C)C(=O)Cn1nnc2ccccc2c1=O	-1.1	x
COc1ccc(S(=O)(=O)N2CCC(NC(=O)NCCCO)CC2)cc1	1.7	-0.011
CCC1(C)Cc2ccccc2-c2[nH]c(=S)[nH]c(=O)c21 (stereo not given)	0.2	-0.8

Single records (already shown).
Listed for COC(=O)c1cc(C(=O)OC)cc(-n2c(C)cc(C(=O)COc3ccc(-c4nnco4)cc3)c2C)c1 → Ab BasE inh: 3.7; LANA-nucl inh: x
Listed for C=CCN1C(=O)S/C(=C\c2cc(OC)ccc2OC)C1=O → Ab BasE inh: -1.8; LANA-nucl inh: 0.046
Listed for COc1ccc(S(=O)(=O)N2CCC(NC(=O)NCCCO)CC2)cc1 → Ab BasE inh: 1.7; LANA-nucl inh: -0.011

An excerpt from further up:
SMILES	Ab BasE inh	LANA-nucl inh
CC(C)(C)c1ccc(-c2nnn(-c3ccccc3)n2)cc1	0.4	2.4
O=S1(=O)Cc2snnc2-c2cc(Cl)ccc21	2.5	-0.98

(more compounds)
SMILES	Ab BasE inh	LANA-nucl inh
CCN(CC)c1nc(Nc2ccc(OC)c(Cl)c2)c2cnn(C)c2n1	4.2	0.16
COc1ccc(C(=O)Nc2nccs2)c(OC)c1	-2.6	-0.51
O=C(COC(=O)c1cc2c(s1)CCC2)Nc1nccs1	4.0	x
Cc1cc(C(=O)CSc2nc3ccccc3n2C)c(C)n1C	1.0	x
CN(C)/C=C1/C=C(c2ccccc2)N(C)C1=S	4.2	x
CCN(CC)S(=O)(=O)c1cc(C(=O)Oc2ccc3c(c2)OCO3)ccc1C	-0.3	x
O=C(Cc1ccc(Br)cc1)NN1CCOCC1	0.8	-0.95
O=C(NC1C=CS(=O)(=O)C1)c1sc2ccccc2c1Cl (stereo not given)	1.6	-0.41
C=CCn1c(CCC(=O)OC)nc2ccccc21	-1.7	0.16
S=c1[nH]c(-c2ccccc2)cn1/N=C/c1ccncc1	2.2	x

3 entries from above, with each value named:
SMILES: CN(C)/C=C1/C=C(c2ccccc2)N(C)C1=S
  Ab BasE inh = 4.2; LANA-nucl inh = x

SMILES: O=C(NC1C=CS(=O)(=O)C1)c1sc2ccccc2c1Cl (stereo not given)
  Ab BasE inh = 1.6; LANA-nucl inh = -0.41

SMILES: O=C(COC(=O)c1cc2c(s1)CCC2)Nc1nccs1
  Ab BasE inh = 4.0; LANA-nucl inh = x
